GLA inh pH 4.5 – alpha-galactosidase A (human) inhibition, pH 4.5; AID 1467; purified enzyme, 4-MU-alpha-Gal fluorescence, pH 4.5; 230,000 tested, under 10 active; activity change, negative = inhibition, % at 105 µM; inconclusive = small, poorly fitted or top-dose-only inhibition, or a rising curve; inactive = flat fitted curve, though single readings scatter; no compound was filed as active;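 further: 0% = full activity with enzyme and -100% = basal without enzyme; dose as in the result columns while the protocol names 77 µM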
Target sequence (P06280 whole entry, looked up): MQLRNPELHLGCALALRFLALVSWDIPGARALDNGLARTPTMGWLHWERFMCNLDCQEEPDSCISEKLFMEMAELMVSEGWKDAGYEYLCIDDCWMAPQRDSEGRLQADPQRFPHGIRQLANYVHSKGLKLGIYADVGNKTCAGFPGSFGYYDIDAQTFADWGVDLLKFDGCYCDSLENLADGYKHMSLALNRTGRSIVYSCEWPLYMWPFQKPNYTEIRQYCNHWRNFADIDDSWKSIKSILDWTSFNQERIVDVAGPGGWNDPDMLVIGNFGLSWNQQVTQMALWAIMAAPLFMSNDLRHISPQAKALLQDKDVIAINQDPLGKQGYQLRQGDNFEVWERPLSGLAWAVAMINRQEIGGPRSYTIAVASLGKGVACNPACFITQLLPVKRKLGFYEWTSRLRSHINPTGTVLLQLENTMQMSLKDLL
Rango dissoc inh – prevents RanGTP from dissociating the Rango-importin beta complex; O95149+P62826; Biochemical FRET Rango-importin beta, RanGTP-induced dissociation; Potency, µM (highest dose often 46.1 µM), inactives show at the highest dose activity change, negative = inhibition; 0.071% of 340,000 active; active means falling FRET ratio curve, often poorly fitted, with flat reads before Ran was added; inconclusive means other falling curves, or compound fluorescence or quenching; inactive means flat or rising ratio curve;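 further: potency means the concentration at half of the fitted maximal effect; % of control where 0% means no effect; nearly all actives have a fitted effect of over 45% in size; -100% = wells without RanGTP and RCC1; the record marks most hits as doubtful in a second field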
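FRET read at 45 min, room temperature: inhibitors block the CFP/YFP signal rise when RanGTP (0.6 uM Ran, 2 mM GTP, 0.2 uM RCC1) frees Rango (0.1 uM) from importin beta (0.25 uM). Pre-read after 5 min compound exposure flags interference.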
miR-21 FLuc – raises the signal of a miR-21 reporter; HeLa miR-21 FLuc reporter, luciferase, 48 h; Potency, µM (titrated, usually from 38.3 µM), without a hit: at the top dose reporter change, positive = more light; 340,000 tested, under 10 active; AID 2288; active = well fitted rising curve with a large enough effect; inconclusive = small, poorly fitted or top-dose-only effect; inactive = no such curve, though single readings can be large or run the other way;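 further: % of control where 0% means no effect; miR-21 action dims this reporter so a rising signal means less miR-21 action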
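HeLa cells stably expressing CMV-driven firefly luciferase with a downstream miR-21 binding sequence, endogenously expressing miR-21, were treated with titrations (up to about 40uM final) for 48 hours at 37 degree Celsius. Luciferase luminescence was read after lysis.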
Rango-impB inh – Rango-importin beta binding inhibition | Q14974 | Rango CFP/YFP FRET sensor + importin beta, 45 min | Potency, µM (top dose mostly 92.2 µM), inactives show at the highest dose inhibition of complex formation | 0.031% of 340,000 active | AID 540263; active = rising FRET ratio curve, often small or poorly fitted; inconclusive = mostly compound fluorescence or quenching in the first reads; inactive = flat curves in all reads;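 further: potency means the concentration at half of the fitted maximal effect; 0% = DMSO wells and 100% = buffer wells lacking importin beta; nearly all actives have a fitted effect of over 15% in size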
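Inhibition scored from the CFP 486 nm/YFP 530 nm FRET ratio 45 min after adding 0.125 microM importin beta to 50 nM Rango biosensor preincubated 5 min with compound (room temperature, PBS with DTT, Tween-20, BSA). No-importin wells as positive control.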
Starred values were filed as active, the others as inactive; ? = inconclusive; · = no result given; & = joins results of further samples; [ ] = remark or other dose. Only part of the results is shown; count on the stated rates, not on these rows.

# | GLA inh pH 4.5 | Rango dissoc inh | miR-21 FLuc | Rango-impB inh | Molecule
1 | 5 | -1% | -1% | -0.4% | COc1ccc(S(=O)(=O)N2CCCOC2CNC(=O)C(=O)NCCCn2ccnc2)cc1OC (stereo unspecified)
2 | -5 | -21% | 1% | 1.9% | CCOCCCNC(=O)C(c1ccccc1)N(Cc1cccs1)C(=O)CNC(C)=O (stereo unspecified)
3 | 9 | -1% | -2% | -4.2% | O=C(CC1CCS(=O)(=O)C1)Nc1ccc[nH]c1=O (stereo unspecified)
4 | · | ? | 1% | ? | CC(=O)Oc1ccc(N2C(=O)c3cccc4c([N+](=O)[O-])ccc(c34)C2=O)cc1
5 | 5 | 10% | -17% | 0.8% | O=C(Nc1cccc(C2OCCCO2)c1)c1cccs1
6 | -12 | 12% | -35% | ? | CN1c2ccsc2/C(=N/Nc2ccccc2)CS1(=O)=O
7 | · | 2% | · | 0.6% | CCn1c(SCC(=O)N(C)C)nc2cc(S(=O)(=O)N3CCOCC3)ccc21
8 | 3 | 9% | -3% | -2.6% | O=C(c1noc2c1CCCC2)N1CCOCC1
9 | -18 | -14% | 7% | 1.6% | Cc1ccc2c(c1)C(c1ccccc1)N(C(=O)c1ccc3c(c1)OCO3)CC(=O)N2 (stereo unspecified)
10 | · | -3% | · | -5.2% | COc1ccc(C(=O)NCc2nnc(SCC(=O)c3ccccc3)n2C)cc1OC

Remaining list, next part
# | GLA inh pH 4.5 | Rango dissoc inh | miR-21 FLuc | Rango-impB inh | Molecule
11 | · | -15% | · | -2.2% | O=C(COC(=O)c1ccc(O)cc1O)Nc1cccc2ccccc12
12 | 6 | 36% | -2% | -0.4% | CCc1ccccc1NC(=O)COc1ccc2oc(-c3ccc(OC)cc3)cc(=O)c2c1
13 | 1 | 0% | -13% | -0.6% | CC(C)c1ccc(C(CC(=O)O)NC(=O)c2cccs2)cc1 (stereo unspecified)
14 | -7 | -4% | 3% | -2.4% | O=C(CN1CCCCCC1)Nc1ccccc1Oc1ccccc1
15 | · | -1% | · | 0.5% | Cc1noc(C)c1S(=O)(=O)N1CCC(C(=O)O)CC1
16 | -2 | -8% | 0% | 5.6% | COC(=O)c1ccccc1-c1ccc(/C=C2\C(=O)N(c3ccccc3)N=C2c2ccccc2)o1
17 | · | 1% | · | 0.4% | O=C1C=C(c2ccc(Cl)nc2)C[C@@H](c2ccc3c(c2)OCO3)C1
18 | · | 10% | · | 1.1% | COc1ccc(C)cc1NC(=O)COC(=O)c1c(C)nn(-c2ccccc2)c1C
19 | 2 | -13% | -1% | -0.5% | CCOC(=O)CN1C(=O)N[C@H](c2ccc(Br)cc2)C(C(C)=O)=C1C
20 | · | 4% | -1% | ? | CCOC(=O)N1CCN(C(=O)C2CCC(=O)N(CCCc3ccccc3)C2)CC1 (stereo unspecified)

Other compounds:
# | GLA inh pH 4.5 | Rango dissoc inh | miR-21 FLuc | Rango-impB inh | Molecule
21 | -14 | 32% | -7% | -5.8% | CCC(SC1=N/C(=C/c2ccccc2)C(=O)N1c1ccccc1)C(=O)Nc1cc(C)on1 (stereo unspecified)
22 | · | -8% | 2% | 0.8% | COc1cc2c(cc1OC)C(c1ccc(C(F)(F)F)cc1)CC(=O)N2 (stereo unspecified)
23 | -2 | 1% | 20% | -0.1% | OC1(C2(O)CC(c3ccccc3)ON2)CCCCC1 (stereo unspecified)
24 | · | 8% | -9% | 4.5% | Cc1ccc(-c2n[nH]c(=O)c3ccccc23)cc1S(=O)(=O)NCC1CCCO1 (stereo unspecified)
25 | -2 | -1% | -1% | 6.4% | O=c1[nH]c(C(F)(F)F)nc2c1nnn2Cc1ccccc1F
26 | -1 | -10% | -5% | -0.3% | CCN1CCN(CC(=O)c2c[nH]c3ccccc23)CC1
27 | · | -5% | 13% | -0.3% | COc1ccc([N+](=O)[O-])cc1Nc1c2ccccc2nc2ccccc12
28 | · | ? | -5% | -0.4% | COC(=O)c1sc(NC(=O)c2c(C)noc2C)nc1C
29 | · | 18% | · | 4.8% | COc1ccc(NC(=O)COC(=O)CN2C(=O)c3ccccc3C2=O)cc1
30 | 4 | 2% | -1% | 0.4% | CC(=O)Nc1ccc(S(=O)(=O)Nc2cc(C)ccn2)cc1

The results go on.
# | GLA inh pH 4.5 | Rango dissoc inh | miR-21 FLuc | Rango-impB inh | Molecule
31 | -6 | 8% | 3% | -0.5% | O=S(=O)(Cc1cc(Sc2ccccc2)nc(-c2ccccc2)n1)c1ccccc1
32 | 4 | 0% | -38% | 2.3% | CCCNCc1nnc(-c2ccccc2Cl)o1
33 | -1 | 4% | -39% | 2.2% | C=CCOc1ccc(/C(O)=C2/C(=O)C(=O)N(CCCn3ccnc3)C2c2ccco2)cc1 (stereo unspecified)
34 | · | 12% | · | 1.9% | COc1cccc(N2CC(NC(=O)c3cccc4ccccc34)CC2=O)c1 (stereo unspecified)
35 | 2 | 3% | -12% | -0.1% | CCC1(C)N(O)C(C)(C)C(c2ccc(F)cc2)=[N+]1[O-] (stereo unspecified)
36 | 0 | 1% | -11% | -4.3% | CCN(CC)S(=O)(=O)c1ccc(NS(=O)(=O)c2ccc(O)c([N+](=O)[O-])c2)cc1
37 | · | 11% | · | -2.4% | Cc1cc(C)n2nc(C(=O)OCC(=O)Nc3ccc(C)c(F)c3)nc2n1
38 | · | -2% | 12% | -1.5% | C/C(=N\NC(=O)c1cc(C)nc2ccccc12)c1cccc(Cl)c1
39 | 0 | -8% | -7% | 3.3% | Cc1nn(C)cc1S(=O)(=O)N1CCN(Cc2ccccc2Cl)CC1
40 | · | -23% | · | 5.8% | CCOc1ccc(-c2cccc(NS(=O)(=O)c3ccccc3[N+](=O)[O-])c2)nn1

(listing goes on)
# | GLA inh pH 4.5 | Rango dissoc inh | miR-21 FLuc | Rango-impB inh | Molecule
41 | · | -10% | -1% | -4.3% | CC(C)N(Cc1nccn1C)C(=O)CC1C(=O)NCCN1Cc1ccc(F)c(F)c1 (stereo unspecified)
42 | 6 | -5% | -25% | -0.5% | CN/N=C(\Cc1nc2ccccc2[nH]1)c1ccc([N+](=O)[O-])cc1
43 | 2 | 5% | -11% | -3.2% | COc1ccc(NC(=O)CCC(=O)OCC(=O)c2ccc(Oc3ccc([N+](=O)[O-])cc3)cc2)cc1
44 | · | 4% | 0% | ? | COc1ccc(OC)c(CNC(=O)CCSCc2ccc(F)cc2Cl)c1
45 | -12 | 0% | 1% | 7.5% | O=C(Nc1ccc(Br)cc1)c1cccn1-c1ncc(C(F)(F)F)cc1Cl
46 | -2 | 11% | -21% | -0.5% | CC/C(=N\NC(=O)Nc1nonc1N)c1ccc(OC)c(OC)c1
47 | -2 | 0% | -1% | 2.5% | COC(=O)c1cccc(NC(=O)CSc2nnc(C)n2Cc2ccccc2)c1
48 | -15 | 2% | -10% | 1.7% | NS(=O)(=O)c1ccc(CCNC(=O)C(=O)NCC2OCCN2C(=O)c2ccc3c(c2)OCO3)cc1 (stereo unspecified)
49 | -5&-1 | -23% | -34% | ? | COc1c(C(C)C)oc2cc3oc(=O)ccc3cc12
50 | -5 | 0%&-1% | -19% | ? | Brc1ccc2[nH]c3nc(SCCN4CCOCC4)nnc3c2c1

Other compounds follow:
# | GLA inh pH 4.5 | Rango dissoc inh | miR-21 FLuc | Rango-impB inh | Molecule
51 | 3 | -6% | 1% | ? | COc1ccc(C(C[N+](=O)[O-])c2c(-c3ccccc3)cc3ccccn23)c(OC)c1 (stereo unspecified)
52 | · | 21% | · | 1.6% | CC(C)c1ccc(COC(=O)CN2C(=O)NC3(CCCCC3C)C2=O)cc1 (stereo unspecified)
53 | -3 | 7% | -6% | 0.6% | CCCCNC(=O)C1CCC(CNc2c(N3CCC(C)CC3)c(=O)c2=O)CC1 (stereo unspecified)
54 | 5 | ? | 1% | ? | CC(C)=CCC(C)(C)C1OCCN1C(=O)Nc1ccccc1 (stereo unspecified)
55 | 3 | 12% | -6% | -2.1% | CCOc1cc(-c2cc(N)n[nH]2)cc(OCC)c1OCC
56 | -4 | -2% | 1% | 3.3% | Cc1ccc(-c2noc(CN(C(=O)CCCCCN3C(=O)c4ccccc4C3=O)C(C)C)n2)cc1
57 | 4 | 1% | 1% | -0.8% | COc1ccccc1NC(=O)/C=C\C(=O)O
58 | · | 3% | · | 3.5% | CCOC(=O)C1=C(COC(=O)c2nc(Cl)ccc2Cl)NC(=O)NC1C (stereo unspecified)
59 | -1 | 1% | -86% | 0.3% | O=C(NCCc1ccccc1)c1cc(-c2ccco2)on1
60 | · | 8% | 0% | ? | O=C(C[n+]1ccccc1)Nc1ccc(Cl)c([N+](=O)[O-])c1

Following part.
# | GLA inh pH 4.5 | Rango dissoc inh | miR-21 FLuc | Rango-impB inh | Molecule
61 | 1 | 8% | 12% | -0.3% | O=C(C1CCN(S(=O)(=O)N2CCOCC2)CC1)N1CCN(c2ccc(F)cc2)CC1
62 | · | 7% | 0% | 4.3% | Cn1ccc(C(=O)OCC(=O)Nc2ccccc2)n1
63 | · | ? | · | 12% | CCOC(=O)c1cc2c(=Cc3ccc(N(C)C)cc3)c3ccccc3n2[n+]1C
64 | · | 2% | · | -5.8% | Cc1ccc(C2(c3ccccc3)NC(=O)N(CC(=O)NCc3ccccc3)C2=O)cc1C (stereo unspecified)
65 | -6 | 25% | 3% | 4.5% | Cn1cccc1-c1nc2ccccc2n1Cc1ccccc1
66 | -12 | 5% | -5% | -1.8% | Cc1ccc(-c2nnc3ccc(SCC(=O)N4CCCc5ccccc54)nn23)cc1
67 | -6 | 14% | -2% | -2.0% | O=S(=O)(NCC1CCCO1)c1ccc(S(=O)(=O)N(Cc2ccc(F)cc2)Cc2ccccn2)cc1 (stereo unspecified)
68 | · | -13% | -1% | -0.6% | Cc1ccc(S(=O)(=O)N2CCC(C(=O)N3CCC[C@H]3C(=O)NCC(C)C)CC2)cc1
69 | · | ? | · | 4.9% | CC(C)/C(C=O)=C(/NC1CCCCC1)c1ccccc1
70 | 3 | 6% | -45% | 2.2% | CC(C)C(=O)NNc1nc2ccccc2s1

(next part)
# | GLA inh pH 4.5 | Rango dissoc inh | miR-21 FLuc | Rango-impB inh | Molecule
71 | -10 | -1% | -3% | 2.7% | CCN(CC)S(=O)(=O)c1cccc(C(=O)NC(Cc2c[nH]c3ccccc23)c2nnc3n2CCC3)c1 (stereo unspecified)
72 | · | -25% | · | -3.7% | Cc1ccccc1C(=O)N1CCC(C(=O)N(CC(C)C)c2c(N)n(Cc3ccccc3)c(=O)[nH]c2=O)CC1
73 | -11 | -7% | -3% | 1.5% | CC(=O)Oc1ccc(N2C(=O)CC(N3CCOCC3)C2=O)cc1 (stereo unspecified)
74 | -6[21.1 µM] | 0% | ? | 4.0% | O=C(CCl)N(Cc1cccc([N+](=O)[O-])c1)c1cccc(Cl)c1
75 | · | -3% | · | -3.8% | CC1CCN(C(=O)C(C)OC(=O)CSc2ccc([N+](=O)[O-])cc2)CC1 (stereo unspecified)
76 | 1 | 19% | -20% | -2.3% | CC(=O)Nc1nc2ccc(Br)cc2s1
77 | · | -12% | · | -0.6% | COc1ccc2oc(C(=O)OCC(=O)NC3CCCCC3)c(C)c2c1
78 | · | -16% | 5% | 0.2% | CC(Nc1nc(Nc2ccc(F)cc2)nc(SCC(N)=O)n1)c1ccccc1 (stereo unspecified)
79 | 4 | 1% | 0% | 1.4% | Cc1nnsc1NC(=O)OCC(C)(C)C
80 | · | -10% | · | -3.0% | CCc1sc(C(=O)Nc2ccc3nc(C)sc3c2)cc1C
81 | · | 0% | -2% | -0.6% | CCn1c(SCC(=O)Nc2ccc3c(c2)OCO3)nnc1C(C)C

Assay outcomes deposited in PubChem BioAssay by National Center for Advancing Translational Sciences (NCATS).
